# Bioassay records from PubChem BioAssay.
# TLR4-MyD88 BLA: inhibitors of TLR4-MyD88 association in cells, primary screen, cell-based, HeLa CL3-4, BLA complementation, FRET ratio; HeLa CL3-4 TLR4/MyD88 BLA complementation; inhibition, % at 8.4 µM; 0.18% of 200,000 active; AID 861, 2007; in the data active = inhibition above about 25%;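 note: 0% = vehicle and 100% = reference inhibitor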
# DTT redox prof: compounds producing H2O2 with reducing agent – biochemical, NIH compound library profiling, artefact control for MLSCN library redox annotation, primary screen; DTT-dependent redox cycling H2O2, phenol red/HRP absorbance; 100% = 100 µM peroxide control, 0% = buffer; activation, % at 10 µM; 0.03% of 200,000 active;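 active = activation of at least 50% relative to the plate's high and low controls in the primary single-dose screen; inactive = activation below 50%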;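 note: compound incubated with DTT at 0.8 mM final as the reducing agent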
# Hsp70 act: Hsp70 transcriptional activators, primary screen, cell-based, HeLa, Hsp70 promoter luciferase, luminescence, 10 µM | 0.04% of 200,000 active | HeLa Hsp70 promoter luciferase reporter; scaled: vehicle 0, proteasome-inhibitor control 100% | activation, % at 10 µM;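 active = activation above the mean across all tested compounds plus 3 SD, cutoff set per campaign, cut at about 5.5% in these data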;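 note: 100% = MG132 at 30 µM as the positive control and 0% = DMSO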
# S1P3 antag: S1P3 receptor antagonists, primary screen, cell-based; Sphingosine 1-phosphate receptor 3 (Homo sapiens), Q99500; CHO S1P3 NFAT-BLA reporter, FRET fluorescence, antagonist mode; inhibition, % at 4.98 µM; 0.27% of 170,000 active;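 active = inhibition above the plate cutoff, the mean inhibition of test wells on that plate plus 3 SD, cut at about 28% in these data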;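 note: cells challenged with S1P at its EC80 of 0.8 µM; blue over green emission ratio from cleaved BLA substrate after 4 h stimulation; 0% = S1P-stimulated wells and 100% = unstimulated DMSO-only wells; some compounds past the cut are filed as inactive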
# Target sequence (Q99500 whole entry, looked up): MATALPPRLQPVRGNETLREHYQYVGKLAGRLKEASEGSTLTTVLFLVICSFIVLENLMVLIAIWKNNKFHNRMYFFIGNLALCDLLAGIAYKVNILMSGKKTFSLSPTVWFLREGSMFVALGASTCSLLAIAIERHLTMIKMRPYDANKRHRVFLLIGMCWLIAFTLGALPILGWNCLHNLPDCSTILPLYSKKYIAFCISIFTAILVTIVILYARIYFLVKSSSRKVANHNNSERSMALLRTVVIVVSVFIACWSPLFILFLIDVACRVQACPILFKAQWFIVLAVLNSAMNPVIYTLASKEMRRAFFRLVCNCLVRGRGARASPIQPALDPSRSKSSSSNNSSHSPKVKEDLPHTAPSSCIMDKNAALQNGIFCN
# * hit, by the source's call; / = no result given; & = joins results of further samples.
# Keys – A = TLR4-MyD88 BLA; B = DTT redox prof; C = Hsp70 act; D = S1P3 antag
COc1ccc(/C=C2\N=C(SC)SC2=O)cc1OC
  A = -13	B = 1.6	C = 0.0	D = /
N[C@@H](Cc1cc(I)c(Oc2ccc(O)c(I)c2)c(I)c1)C(=O)O
  A = -6&-6	B = -1.3&-0.7	C = -0.1&-0.3	D = -27&-6
CCCCc1oc2ccccc2c1C(=O)c1cc(I)c(OCCN(CC)CC)c(I)c1
  A = 5	B = 2.9	C = -0.3	D = 1
COc1ccc(/C(N)=N/OC(=O)CSc2ccccc2)cc1
  A = -6	B = 0.4	C = -0.1	D = /
Cc1nc(=O)c(-c2ccccc2)c(C)n1-c1ccc(O)c(C(=O)O)c1
  A = -7	B = -0.4	C = -0.3	D = -19
O=C(O)COCCN1CCN(C(c2ccccc2)c2ccc(Cl)cc2)CC1 (centres undefined)
  A = 6	B = 0.7	C = 0.1	D = /
Cc1ccc2c(CC(=O)N3CCN(S(=O)(=O)c4ccc5c(c4)OCCO5)CC3)coc2c1
  A = -10	B = 0.7	C = -0.1	D = 2
O=C(O)Cn1nc(C(F)(F)F)c2c1CCCCC2
  A = 0	B = 0.1	C = -0.2	D = -12
COc1cc(S(=O)(=O)n2c(C)nc3ccccc32)ccc1F
  A = -5	B = 0.7	C = -0.4	D = -5
O=C(CSc1ncnc2ccccc12)NCc1ccc2c(c1)OCO2
  A = 4	B = 0.2	C = -0.1	D = -11
O=C(O)c1cccnc1
  A = -9	B = 0.7	C = -0.3	D = -3

# Reprinted at random: four compounds from above.
# Keys – A = TLR4-MyD88 BLA; B = DTT redox prof; C = Hsp70 act; D = S1P3 antag
N[C@@H](Cc1cc(I)c(Oc2ccc(O)c(I)c2)c(I)c1)C(=O)O
  A = -6&-6	B = -1.3&-0.7	C = -0.1&-0.3	D = -27&-6
O=C(CSc1ncnc2ccccc12)NCc1ccc2c(c1)OCO2
  A = 4	B = 0.2	C = -0.1	D = -11
Cc1ccc2c(CC(=O)N3CCN(S(=O)(=O)c4ccc5c(c4)OCCO5)CC3)coc2c1
  A = -10	B = 0.7	C = -0.1	D = 2
COc1ccc(/C=C2\N=C(SC)SC2=O)cc1OC
  A = -13	B = 1.6	C = 0.0	D = /

# Some of these compounds in order of length of the SMILES, descending.
# Keys – A = TLR4-MyD88 BLA; B = DTT redox prof; C = Hsp70 act; D = S1P3 antag
Cc1nc(=O)c(-c2ccccc2)c(C)n1-c1ccc(O)c(C(=O)O)c1
  A = -7	B = -0.4	C = -0.3	D = -19
O=C(CSc1ncnc2ccccc12)NCc1ccc2c(c1)OCO2
  A = 4	B = 0.2	C = -0.1	D = -11
O=C(O)c1cccnc1
  A = -9	B = 0.7	C = -0.3	D = -3

# Not all compounds are listed; count on the stated rates, not on these rows.
